HNF4A DNA FP = change in binding of human HNF4 alpha to DNA; P41235; HNF4a-FITC DNA binding, fluorescence polarization, 1 h; activity change, % at 10 µM; 360,000 compounds, 0.3% hits; in the data active = activity change above about 30%, passing the limit was not always enough;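 note: controls were the assay level and a saturating level of protein; the project sought stronger binding though the title names inhibitors; some compounds called inactive have numbers as strong as hits; positive values seem to mean higher polarization but the record does not say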
Ecoli growth = inhibitors of Escherichia coli growth; OD600 absorbance (concentration not given with the values); AID 1053175; OD600, 23 h; hits give low values; 330,000 compounds, 0.21% hits;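 active = OD600 absorbance below the run mean of sample wells minus 3.6 SD, in any replicate, cut at about 0.56 in these data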;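 note: stock transfer was 300 nL into about 60 µL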
Vif TR-FRET = HIV-1 Vif–A3G interaction blockers – biochemical, TR-FRET, GST-Vif 1-94, biotin-A3G peptide, dose response retest, primary screen (AID 1117319) | TR-FRET GST-Vif / biotin-A3G peptide binding; higher % means a stronger effect; test concentration not given here; strong numbers were not always called active | inhibition, %; hits with a dose series show IC50 in µM | 260,000 compounds, 0.57% hits;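 active = above the screen mean plus three standard deviations and confirmed in dose response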;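 note: Vif residues 1-94 fused to GST binding biotinylated APOBEC3G peptide 110-148; 0% = full assay without inhibitor and 100% = GST in place of GST-Vif; retest series ran down from 100 µM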
Ecoli rRNA inh = inhibits bacterial ribosomal RNA function over humanized ribosomes | E. coli WT GFP vs humanized-ribosome RFP mutants, fluorescence, 24 h; hits give low values; DMSO median 0, no signal -100 | GFP signal change (wild-type ribosome), % (no concentration beside the values) | 350,000 compounds, 1.6% hits;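 active = significant combined selectivity score with lowered wild-type GFP, culture density cut under 30%, mutant RFP and density less affected; inactive = any of these conditions unmet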; note: one replicate is shown; some compounds called inactive have numbers as strong as hits
MLL AF4-AF9 inh = MLL-AF4/AF9 protein interaction inhibition; AID 651704; AlphaScreen, biotin-AF4 peptide binding to FLAG-AF9; 350,000 compounds, 0.47% hits; P42568; inhibition, % at 10 µM;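 active = every replicate reaching a set inhibition limit, whatever the replicate mean, cut at about 25% in these data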;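 note: 0% = plate neutral control median and 100% = total signal loss; the record names both 10 and 1 µM as test concentration; the first replicate is given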
Target sequence (P42568 whole entry, looked up): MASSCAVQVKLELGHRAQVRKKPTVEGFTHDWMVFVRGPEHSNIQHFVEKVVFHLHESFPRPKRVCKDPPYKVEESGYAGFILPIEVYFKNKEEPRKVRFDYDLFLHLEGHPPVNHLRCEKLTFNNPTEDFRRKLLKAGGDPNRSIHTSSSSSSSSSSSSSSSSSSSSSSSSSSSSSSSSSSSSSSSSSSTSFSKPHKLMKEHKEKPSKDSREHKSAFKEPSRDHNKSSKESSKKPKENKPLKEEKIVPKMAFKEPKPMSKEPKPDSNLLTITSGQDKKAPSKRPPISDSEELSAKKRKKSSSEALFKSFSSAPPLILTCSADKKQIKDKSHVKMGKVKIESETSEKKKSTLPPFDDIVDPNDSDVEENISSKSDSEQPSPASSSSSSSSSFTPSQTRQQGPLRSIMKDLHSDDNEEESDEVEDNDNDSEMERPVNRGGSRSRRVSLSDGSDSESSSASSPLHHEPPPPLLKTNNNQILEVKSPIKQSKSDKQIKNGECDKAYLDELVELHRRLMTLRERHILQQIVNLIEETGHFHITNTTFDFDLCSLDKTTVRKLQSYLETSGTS
FGF22 binding = FGF22 (human) thermal shift binding | recombinant FGF22 thermal shift, SYPRO orange fluorescence; percent of sucrose octasulfate shift, DMSO zero | calls only at 9.99 µM | 340,000 compounds, 1.5% hits | AID 651658;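 active = melting point raised past a set limit in the mean and every replicate; three in four hits are not shown here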
Target sequence (Q9HCT0 whole entry, looked up): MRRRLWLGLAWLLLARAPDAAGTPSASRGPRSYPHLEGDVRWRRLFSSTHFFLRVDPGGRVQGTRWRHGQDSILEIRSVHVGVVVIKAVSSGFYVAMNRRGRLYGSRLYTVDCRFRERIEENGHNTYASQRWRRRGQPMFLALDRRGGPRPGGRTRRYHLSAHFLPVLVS
ALR H2O2 inh = human ALR oxidase inhibition via reduced H2O2; purified ALR, DTT oxidation, H2O2 HRP-luminol luminescence; P55789; inhibition, % (test concentration not listed); 290,000 compounds, 3.8% hits;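 active = mean and each replicate at 75% or more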;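 note: stock transfer was 7.5 nL into about 7.5 µL; 0% = neutral wells and 100% = wells with inactivated enzyme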
Target sequence (P55789 whole entry, looked up): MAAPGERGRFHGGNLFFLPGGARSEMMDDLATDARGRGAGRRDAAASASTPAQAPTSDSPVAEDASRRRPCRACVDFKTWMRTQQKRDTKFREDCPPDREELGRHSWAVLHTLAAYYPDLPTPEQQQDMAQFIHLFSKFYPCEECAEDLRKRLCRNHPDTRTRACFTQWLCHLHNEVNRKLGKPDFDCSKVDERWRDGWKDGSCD
Ecoli rRNA inh OD600 = further read-out of Ecoli rRNA inh, marked with its call; OD600 change, %; measured here: OD600 growth;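 optical density of the mix in the first replicate; 0 = DMSO median and -100 = no signal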
Ecoli rRNA inh RFP = recorded beside Ecoli rRNA inh, whose call it bears; RFP signal change, %; measured here: RFP humanized mutant strains;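 first replicate; 0 = DMSO median and -100 = no signal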
Numbers without * were called inactive; & = joins results of further samples. These rows are one share of the data; the hit share may differ from the screen's.

Screening N#CC1=C(SCC(=O)Nc2ccccc2)NC(=O)CC1c1ccco1 (configuration not stated) returned HNF4A DNA FP -0.4, Ecoli growth 0.65, Vif TR-FRET 15% and ALR H2O2 inh -7.
For CC(=O)c1cccc(NC(=O)COC(=O)C2CCCN2C(=O)c2cccs2)c1 (configuration not stated) the results were HNF4A DNA FP -2.2, Ecoli growth 0.64, Vif TR-FRET -1%, Ecoli rRNA inh -18*, MLL AF4-AF9 inh 2.1, FGF22 binding inactive, ALR H2O2 inh 1, Ecoli rRNA inh OD600 -19* and Ecoli rRNA inh RFP 1.3*.
Screening Cc1ccc(NC(=O)CN(C)C(=O)Cn2ccsc2=N)cc1 returned HNF4A DNA FP -0.7, Vif TR-FRET -1%, Ecoli rRNA inh 15, MLL AF4-AF9 inh -0.8, ALR H2O2 inh -6, Ecoli rRNA inh OD600 9 and Ecoli rRNA inh RFP 1.6.
For C/C=C/c1ccc([C@H]2[C@@H](CO)N(C(C)=O)[C@H]2CNC(=O)c2ccccc2)cc1 the results were Ecoli rRNA inh -6, MLL AF4-AF9 inh 4.0, FGF22 binding inactive, Ecoli rRNA inh OD600 -6 and Ecoli rRNA inh RFP -0.5.
Nc1nccnc1C(=O)OCC(=O)NCCc1ccc(S(N)(=O)=O)cc1 was read as HNF4A DNA FP -4.9, Ecoli growth 0.65, Vif TR-FRET 10%, Ecoli rRNA inh 0, MLL AF4-AF9 inh -1.5, FGF22 binding inactive, ALR H2O2 inh -2, Ecoli rRNA inh OD600 10 and Ecoli rRNA inh RFP 3.1.
O=C(COc1ccc(Br)cc1)NC(=S)Nc1ccccc1N1CCOCC1 was read as HNF4A DNA FP -1.5, Ecoli growth 0.73, Ecoli rRNA inh 2, MLL AF4-AF9 inh 0.4, FGF22 binding inactive, ALR H2O2 inh -1, Ecoli rRNA inh OD600 11 and Ecoli rRNA inh RFP -5.4.
`O=C1Nc2ccccc2/C1=C/c1ccnc2ccccc12` gave HNF4A DNA FP 1.2, Ecoli growth 0.64, Vif TR-FRET -3%, Ecoli rRNA inh -9, MLL AF4-AF9 inh -10, FGF22 binding inactive, ALR H2O2 inh -5, Ecoli rRNA inh OD600 -3 and Ecoli rRNA inh RFP 4.2.
`OCCC1CN(Cc2ccc(-c3ccco3)cc2)CCN1Cc1ccsc1` (configuration not stated) gave HNF4A DNA FP 1.1, Ecoli growth 0.65, Vif TR-FRET -1%, Ecoli rRNA inh -6, MLL AF4-AF9 inh 7.0, ALR H2O2 inh -5, Ecoli rRNA inh OD600 -3 and Ecoli rRNA inh RFP 1.9.
For CCOC(=O)c1c(C)[nH]c(C(=O)N2CCN(c3ccc(OC)cc3)CC2)c1C the results were HNF4A DNA FP -2.6, Ecoli growth 0.72, Vif TR-FRET 7%, Ecoli rRNA inh -25, MLL AF4-AF9 inh 7.4, FGF22 binding inactive, ALR H2O2 inh 98*, Ecoli rRNA inh OD600 -31 and Ecoli rRNA inh RFP 0.5.
`Cc1noc(C)c1S(=O)(=O)N(C)C[C@@H]1Oc2ccc(N(C)C)cc2CC(=O)N([C@H](C)CO)C[C@H]1C` gave Ecoli rRNA inh 2, MLL AF4-AF9 inh 1.4, FGF22 binding inactive, Ecoli rRNA inh OD600 -3 and Ecoli rRNA inh RFP 0.2.
For CC(C)(C)c1ccc(NC(=O)c2c(F)cccc2Cl)cc1 the results were HNF4A DNA FP -0.9, Ecoli growth 0.61, Vif TR-FRET 10%, Ecoli rRNA inh -9, MLL AF4-AF9 inh 2.3, FGF22 binding inactive, ALR H2O2 inh 0, Ecoli rRNA inh OD600 -17 and Ecoli rRNA inh RFP -3.8.
`O=C(/C=C/c1cccc([N+](=O)[O-])c1)NCCSCc1ccccc1Cl` gave HNF4A DNA FP -0.6, Ecoli growth 0.68 and ALR H2O2 inh -2.
Screening CC(=O)Nc1ccc(S(=O)(=O)N(C)CC(=O)OCC(=O)N(CC(C)C)C2CCS(=O)(=O)C2)cc1 (configuration not stated) returned HNF4A DNA FP 0.8, Ecoli growth 0.71, Vif TR-FRET -3%, Ecoli rRNA inh 8, MLL AF4-AF9 inh -0.9, FGF22 binding inactive, ALR H2O2 inh 1, Ecoli rRNA inh OD600 13 and Ecoli rRNA inh RFP -1.5.
CCCN(C)C[C@@H]1Oc2cc(C#CC(C)C)ccc2S(=O)(=O)N([C@@H](C)CO)C[C@H]1C was read as Ecoli rRNA inh 6, MLL AF4-AF9 inh 3.1, FGF22 binding inactive, Ecoli rRNA inh OD600 -8 and Ecoli rRNA inh RFP -0.5.
`COc1ccc(F)cc1-c1cc(NC=O)c2ncc(-c3cccc(C(=O)N(C)C)c3)n2c1` gave HNF4A DNA FP 4.3, Ecoli rRNA inh -1, MLL AF4-AF9 inh -1.6, FGF22 binding inactive, Ecoli rRNA inh OD600 -8 and Ecoli rRNA inh RFP -1.3.
For CN1CCN(C2=Nc3ccccc3Oc3ccc(Cl)cc32)CC1 the results were HNF4A DNA FP -4.9, Ecoli growth 0.69, Vif TR-FRET -2%&-6%, MLL AF4-AF9 inh 15&8.1 and FGF22 binding inactive.
`CCn1cc(C(=O)O)c(=O)c2cc(F)c(N3CCN(C(=S)NC(=O)c4ccccc4Cl)CC3)cc21` gave HNF4A DNA FP 0.8, Ecoli growth 0.075*, Vif TR-FRET -30%, Ecoli rRNA inh -50, MLL AF4-AF9 inh -6.2, FGF22 binding inactive, ALR H2O2 inh -3, Ecoli rRNA inh OD600 -73 and Ecoli rRNA inh RFP -25.
Screening CCCCCN(C(=O)NC(=O)NCCCC)S(C)(=O)=O returned HNF4A DNA FP 2.5, Ecoli growth 0.71, Vif TR-FRET 1% and ALR H2O2 inh -4.
For Cc1ccc(C(=O)Nc2ccsc2C(=O)O)cc1 the results were HNF4A DNA FP 1.4, Vif TR-FRET -6%, Ecoli rRNA inh 0, MLL AF4-AF9 inh -26, FGF22 binding inactive, Ecoli rRNA inh OD600 -12 and Ecoli rRNA inh RFP 0.9.
For CN(C)c1c(N)c(=O)oc2ccccc12 the results were HNF4A DNA FP -1.6, Ecoli growth 0.64, Ecoli rRNA inh 16, MLL AF4-AF9 inh -3.3, FGF22 binding inactive, ALR H2O2 inh 68, Ecoli rRNA inh OD600 10 and Ecoli rRNA inh RFP 3.3.
Cc1ccc(C)c(C(=O)CC2(O)C(=O)N(C)c3ccccc32)c1 (configuration not stated) was read as HNF4A DNA FP -0.3, Ecoli growth 0.71, Vif TR-FRET 25%, Ecoli rRNA inh -3, MLL AF4-AF9 inh -3.0, FGF22 binding inactive, ALR H2O2 inh -3, Ecoli rRNA inh OD600 -5 and Ecoli rRNA inh RFP -3.2.
For O=C(C[C@@H]1CC[C@@H]2[C@H](COC[C@H](O)CN2Cc2ccc(Oc3ccccc3)cc2)O1)N1CCCCC1 the results were Ecoli rRNA inh -57, MLL AF4-AF9 inh 1.2, FGF22 binding inactive, Ecoli rRNA inh OD600 -75 and Ecoli rRNA inh RFP -16.
Screening O=C(CCl)N(c1ccccc1)c1ccccc1 returned HNF4A DNA FP -4.4, Ecoli growth 0.7, Vif TR-FRET 0%, Ecoli rRNA inh 6, MLL AF4-AF9 inh -1.3, FGF22 binding inactive, Ecoli rRNA inh OD600 10 and Ecoli rRNA inh RFP -1.9.
`O=C(O)CCCCCNC(=O)c1ccc(C(=O)NCCCCCC(=O)O)cc1` gave HNF4A DNA FP -1.0, Ecoli growth 0.69, Vif TR-FRET 31%, Ecoli rRNA inh 4, MLL AF4-AF9 inh -1.8, FGF22 binding inactive, Ecoli rRNA inh OD600 11 and Ecoli rRNA inh RFP -1.3.
For COc1ccc(C2N(c3ccc(Cl)cc3)N=C(C(C)=O)N(C)N2C(C)=O)cc1 (configuration not stated) the results were HNF4A DNA FP 0.7, Ecoli growth 0.67, Vif TR-FRET -7%, Ecoli rRNA inh 12, MLL AF4-AF9 inh 28*, FGF22 binding inactive, ALR H2O2 inh -3, Ecoli rRNA inh OD600 5 and Ecoli rRNA inh RFP 0.2.
For CCCNC(=O)c1c(Cl)cnn1-c1ccc(C)cc1 the results were HNF4A DNA FP -1.0, Ecoli growth 0.66, Vif TR-FRET 1%, Ecoli rRNA inh 2, MLL AF4-AF9 inh -3.4, FGF22 binding inactive, ALR H2O2 inh -3, Ecoli rRNA inh OD600 -7 and Ecoli rRNA inh RFP -1.8.
`COc1ccccc1OCC(=O)N/N=C/c1c(O)ccc2ccccc12` gave HNF4A DNA FP -2.3, Ecoli rRNA inh -2, MLL AF4-AF9 inh -1.9, FGF22 binding inactive, ALR H2O2 inh -6, Ecoli rRNA inh OD600 -3 and Ecoli rRNA inh RFP -3.2.
Screening COc1ccc(S(=O)(=O)Nc2ccc3c(c2)C(=O)N([C@H](C)CO)C[C@H](C)[C@@H](CN(C)C(=O)Nc2ccc(C(F)(F)F)cc2)OCCCC[C@H](C)O3)cc1 returned HNF4A DNA FP 1.9, Ecoli rRNA inh 19&1, MLL AF4-AF9 inh -1.7&-0.3, FGF22 binding inactive, Ecoli rRNA inh OD600 21&-20 and Ecoli rRNA inh RFP 6.0&4.1.
For Cn1cnc(S(=O)(=O)N2C[C@H](O)COC[C@H]3O[C@@H](CC(=O)NCc4cc(F)cc(F)c4)CC[C@@H]32)c1 the results were Ecoli rRNA inh 0, MLL AF4-AF9 inh -5.2, FGF22 binding inactive, Ecoli rRNA inh OD600 4 and Ecoli rRNA inh RFP 3.7.
Screening Cc1ccc(NC(=O)Cc2nnc(SCC(=O)NC3CCCC3)n2C)cc1C returned HNF4A DNA FP -3.8, Vif TR-FRET 0%, Ecoli rRNA inh 3, MLL AF4-AF9 inh 1.4, FGF22 binding inactive, Ecoli rRNA inh OD600 5 and Ecoli rRNA inh RFP -2.0.

Brought forward from above: 2 entries; new compounds follow.
For Cn1cnc(S(=O)(=O)N2C[C@H](O)COC[C@H]3O[C@@H](CC(=O)NCc4cc(F)cc(F)c4)CC[C@@H]32)c1 the results were Ecoli rRNA inh 0, MLL AF4-AF9 inh -5.2, FGF22 binding inactive, Ecoli rRNA inh OD600 4 and Ecoli rRNA inh RFP 3.7.
Screening Cc1ccc(NC(=O)Cc2nnc(SCC(=O)NC3CCCC3)n2C)cc1C returned HNF4A DNA FP -3.8, Vif TR-FRET 0%, Ecoli rRNA inh 3, MLL AF4-AF9 inh 1.4, FGF22 binding inactive, Ecoli rRNA inh OD600 5 and Ecoli rRNA inh RFP -2.0.
Screening CC(C)CC1NC(C(=O)O)Cc2c1[nH]c1ccccc21 (configuration not stated) returned HNF4A DNA FP -1.5, Ecoli growth 0.64, Ecoli rRNA inh 11, MLL AF4-AF9 inh -12, FGF22 binding inactive, ALR H2O2 inh 22, Ecoli rRNA inh OD600 8 and Ecoli rRNA inh RFP 3.0.
Screening COc1ccc(CN(C)C[C@H]2Oc3c(NC(=O)Nc4ccc(F)cc4)cccc3C(=O)N([C@@H](C)CO)C[C@@H]2C)cc1 returned Ecoli rRNA inh 0, MLL AF4-AF9 inh 2.4, FGF22 binding inactive, Ecoli rRNA inh OD600 15 and Ecoli rRNA inh RFP -0.7.
Screening Cc1cc(-c2ccccc2C(=O)NCc2ccccc2)on1 returned HNF4A DNA FP -0.9, Ecoli growth 0.65, Vif TR-FRET 1% and ALR H2O2 inh -5.
Screening CC(=O)Oc1ccc(-c2cc3c(OC(C)=O)cc(OC(C)=O)cc3oc2=O)cc1 returned HNF4A DNA FP 10, Ecoli growth 0.69, MLL AF4-AF9 inh 7.9, FGF22 binding inactive and ALR H2O2 inh -22.
`CCOc1ccc(-n2c(N)c(C(=O)NCc3cccnc3)sc2=S)cc1` gave HNF4A DNA FP -0.2, Ecoli growth 0.71, Vif TR-FRET 0% and ALR H2O2 inh 5.
